CSC inhib: cancer stem cell inhibition | cancer stem cell-like cells viability, luminescence | inhibition, % at 7.5 µM | actives 1.1% (n = 300,000) | AID 2717;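 active = mean at 75% or more and at least half the replicates too; inconclusive = mean and replicates disagree; tested in HMLE shEcad cells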;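 note: 0% = median of negative and 100% = median of positive control wells; the first replicate is given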
eIF4H FP inh: inhibitors of RNA binding by human eIF4H | eIF4H fluorescence polarization binding assay | actives 0.94% (n = 290,000) | Q15056 | inhibition, % at 35 µM;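 active = 50% or more with normal probe brightness, or confirmed in later tests; inconclusive = above 50% with abnormal brightness, or retests that disagree; inactive = below 50% or failed in later tests; about a fifth of its hits are not listed in these tables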;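 note: calls also rest on retests at 20 µM and on dose response follow-up; 0% = protein and probe with vehicle and 100% = probe without protein; strong numbers were not always called active; many hits fall short of the cut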
Env fusion inh: HIV envelope-mediated fusion inhibition; inhibition, % at 12.3 µM; HeLa-JRFL Env/CEM21 cell fusion, luciferase; AID 651610; actives 1.1% (n = 360,000);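 active = mean replicate inhibition score of at least 50 and every replicate individually at or above 50; inconclusive = only one of the two criteria met; inactive = mean below 50 and not all replicates reaching 50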;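 note: 0% = plate neutral controls and 100% = maraviroc near 300 nM; one replicate is shown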
Rce1 inh: yeast Ras-converting enzyme inhibition. Q03530. yeast membranes, quenched prenylated peptide cleavage fluorescence. calls only. actives 0.27% (n = 290,000). AID 2563;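 active = fall in fluorescence gain of 50% or more versus controls, with final raw signal at or below 3038400; inconclusive = same 50% fall but final raw signal above 3038400; inactive = fall in fluorescence gain under 50%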;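 note: plate controls were neutral control wells for no effect and wells lacking membranes for full effect; tested at 10 µM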
Target sequence (Q03530 whole entry, looked up): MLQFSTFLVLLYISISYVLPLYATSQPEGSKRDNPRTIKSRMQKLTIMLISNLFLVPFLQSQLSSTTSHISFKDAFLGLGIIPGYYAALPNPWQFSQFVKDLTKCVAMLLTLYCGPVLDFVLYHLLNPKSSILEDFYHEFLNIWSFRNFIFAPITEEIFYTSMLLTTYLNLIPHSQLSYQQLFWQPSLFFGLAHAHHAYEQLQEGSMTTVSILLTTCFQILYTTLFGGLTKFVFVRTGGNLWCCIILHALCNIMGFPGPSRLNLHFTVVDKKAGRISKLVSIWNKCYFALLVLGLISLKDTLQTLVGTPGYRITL
MT1-MMP act inh: blocks activation of human MT1-MMP; P50281; HT1080 RFP-PRO-GFP cells, GFP/RFP ratio fluorescence, overnight; percent of plate control window, DMSO zero; GFP/RFP ratio change, % at 20 µM; actives 0.061% (n = 360,000); AID 651647;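 active = GFP/RFP ratio change of at least 30% with cell ATP level not reduced by more than half and red fluorescence within 50% of control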; note: strong numbers were not always called active
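Assay system: RFP-PRO-GFP reporter HT1080 cells; read-out basis: GFP/RFP fluorescence ratio; benchmarks: DMSO wells and RFP-L50D-GFP cells; doses: 20 µM single dose, 1% DMSO; schedule: overnight cell settling, then overnight compound exposure, 37 °C, 5% CO2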
PABP polyA inh: PABP-poly(A) binding inhibition. actives 1% (n = 290,000). PABP-poly(A) RNA binding, fluorescence polarization. inhibition, % at 35 µM. AID 2014. P11940;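 active = 50% or more with normal probe brightness, or confirmed in later tests; inconclusive = above 50% with abnormal brightness, or retests that disagree; inactive = below 50% or failed in later tests; about a fifth of its hits are not listed in these tables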;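 note: calls also rest on retests at 20 µM and on dose response follow-up; controls were probe without protein and protein plus probe with vehicle; some compounds called inactive have numbers as strong as hits; many hits fall short of the cut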
Yeast UUG start: modulators of start codon recognition fidelity in yeast; S. cerevisiae UUG-firefly luciferase reporter, luminescence/redox ratio; activity score, % at 18.7 µM; actives 0.13% (n = 350,000); AID 602363;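 active = replicate mean at a twofold rise or more, about +100% in these data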;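 note: firefly luciferase made from a UUG start codon reports start codon fidelity; reporter light over untreated wells divided by growth signal over untreated wells; some hits fall short of that in this replicate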
PABP polyA inh retest: also measured in PABP polyA inh; calls as there; inhibition, %; compound at 20 µM; confirmation repeats;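 mean of two retest wells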
MT1-MMP act inh RFP: further read-out of MT1-MMP act inh, marked with its call; RFP signal change, %; measured here: RFP expression control read;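 0 = vehicle wells; hits needed this value within 50% of zero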
* hit, by the source's call; i = inactive; ? = inconclusive; · = no result given; & = joins results of further samples; [ ] = remark or other dose. An excerpt; count on the stated rates, not on these rows.

SMILES	CSC inhib	eIF4H FP inh	Env fusion inh	Rce1 inh	MT1-MMP act inh	MT1-MMP act inh RFP	PABP polyA inh	Yeast UUG start	others
COC(=O)NCC(c1cccnc1)N1CCN(c2ccccc2OC)CC1 (centres undefined)	11	4	·	i	5	4	5	0
O=C(N/N=C/c1ccc2c(c1)OCO2)c1ccc(NC(=O)c2ccc(F)cc2)cc1	16	-1	7	i	-2	-4	1	-18
C=CCn1c(C)cc(C(=O)CN2C(=O)c3ccccc3S2(=O)=O)c1C	-8	·	·	·	17	2	·	-14
O=C(CCS(=O)(=O)c1ccc(Cl)cc1)NCCc1c[nH]c2ccccc12	·	-6	12	i	-2	1	-7	-12
O=C(NNc1cccc(Cl)n1)C(F)(F)F	-4	8	0	i	-6	0	0	·
Cc1nc2c(C(=O)NCc3ccco3)cnn2c(C)c1Cc1ccc(F)cc1Cl	1	9	42	i	-7	-18	-6	-10
Cc1ccc(-c2nnc(-c3cccc(Br)c3)o2)cc1	2	2	-136	i	-1	-1	4	-22
COc1ccc(-c2c3c(cc(C)[n+]2[O-])oc2ccc(OC)cc23)cc1	6	1	-36	i	-1	-12	-16	·
Cc1nc(-c2cccc(S(=O)(=O)N3CCOCC3)c2)cs1	-11	7	·	i	1	0	-8	-18
Cc1ccccc1CN(c1ccc(C(N)=O)cc1)S(C)(=O)=O	-11	-4	10	i	-5	-4	-8	-1
Nc1ccc(-c2nc3ncccc3o2)c(O)c1	·	-2	-69	?	-4	-1	9	-21
O=c1c2ccccc2nc2n1CCC2	5	-12	-124	i	2	2	-9	·
CC(=O)c1cccc(-c2ccnc3c2CC(C(=O)NCc2cccs2)O3)c1 (centres undefined)	·	·	-30	·	14	-1	·	-6
Cc1c(Cl)c(-c2n[nH]c(=S)n2-c2ccccc2)nn1C	-6	-8	1	i	3	1	4	6
O=C(c1ccco1)N(Cc1nc2ccccc2c(=O)[nH]1)C1CCCC1	·	-2	·	·	-4	-1	22	-10
O=c1c2sccc2n(Cc2cccc(F)c2)c(=O)n1-c1ccc(F)cc1	-8	-1	·	i	6	-1	25	·
O=C(NC(=S)Nc1ccc(Br)cn1)c1cncc(Br)c1	-14	7	-28	i	6	-1	0	-13
COc1ccc2c(O)c(-c3c(C)cc(C)cc3C)c(=O)[nH]c2c1	12	·	14	i	-1	-9	·	·
CC/S(CC1CC1(Cl)Cl)=N\S(=O)(=O)c1ccc(C)cc1 (centres undefined)	0	-6	-37	i	0	2	-6	-4
CCCCNC(=O)c1ccc2nc(CC)c(N(CCC(C)C)CCN(C)C)n2c1	·	·	-15	·	-2	1	·	-2
CCOC(=O)C1CCN(C(=O)c2cc(S(=O)(=O)N3CCOCC3)ccc2C)CC1	-14	·	·	·	-1	0	·	-6
CC(C)c1ccc(NC(=O)C2C3C=CC4(O3)C2C(=O)N(CCCN2CCCCC2)C4C(=O)NC2CCCCC2)cc1 (centres undefined)	-45	2	30	i	3	3	-2	2
CCCN(CCC)CCCNC(=O)CNC(=O)c1nn(-c2ccc(OC)cc2)c(=O)c2ccccc12	-12	2	-16	i	-2	-2	-12	·
O=C(NNC(=S)NCc1ccco1)c1ccc(Cl)s1	-8	2	·	i	-7	-2	2	·
O/N=C(\c1ccc2c(c1)OCCO2)C1CCCCC1	-6	-2	·	i	-6	-10	9	4
CCOC(=O)c1cnn2c(C)cc(-c3ccc(F)cc3)nc12	6	9	·	i	-3	-2	-5	-11
O=C1CC[C@@H](O)CCN1CC[C@H](Sc1ccc(Br)cc1)c1ccccc1	-4	·	-35	·	5	0	·	-12
O=C(NCCCN1CCN(CCCNC(=O)c2ccc3c(c2)OCO3)CC1)c1ccc2c(c1)OCO2	-9	-3	-56	i	2	2	-8	-19
CCc1nc2ccccc2c(C(=O)OCC(=O)Nc2ccc(NC(C)=O)cc2)c1C	-13	·	-1	·	6	-6	·	-6
Cn1nc(C(C)(C)C)cc1C(=O)N1CCCCC1c1cc(C(=O)Nc2cccc(C#N)c2)no1 (centres undefined)	·	·	5	·	-3	-11	·	-1
COc1cnn(-c2ccc(Br)cc2)c(=O)c1SCc1ccccc1	-20	2	·	i	5	4	-1	·
Cc1nn(Cc2ccc(C(=O)Nc3nccs3)cc2)c(C)c1Cl	83*	-5	3	i	-5	-9	0	-3
COC(=O)c1cc(C)sc1NC(=O)CSc1ncccn1	6	-10	5	i	1	0	12	-4
COc1c(Cl)ccc(Cl)c1C(=O)NCc1ccco1	-6	-13	0	i	-7	-4	6	·
COc1ccc(NC(=O)COc2ccc(-c3nn(C)c(=O)c4ccccc34)cc2)cc1	13	-16	22	i	-4	-6	-2	0
CC(C)n1c(SCC(=O)NCc2ccco2)nc2c1c(=O)n(C)c(=O)n2C	·	9	·	i	3	7	-2	-12
O=C(Nc1cccc(Cl)c1)Nc1nnc(CSCCOc2ccc(Cl)cc2)s1	31	-1	·	i	-29	-34	8	-9
Cc1cccn2c(=O)c3cc(C(=O)NCC4CCCO4)c(=N)n(C4CCCCC4)c3nc12 (centres undefined)	-4	9	-10	·	-1	-2	6	-1
Cn1c(CN2CCCCC2)nc2cc(NC(=O)c3cccs3)ccc21	·	-7	·	i	7	-1	-12	-16
COc1cccc2cc(C(=O)N3CCCCC3C)c(=O)oc12 (centres undefined)	8	5	·	i	5	7	1	-11
Cc1cc(C)c2c(NC(N)=S)n[nH]c2n1	-7	-7	-8	i	3	3	10	-6
CC(C)(C)NC(=O)C1CC(=O)N(CCc2ccc(F)cc2)C1 (centres undefined)	-16	-4	11	i	-4	2	-5	-1
O=C(NCCCCc1ccccc1)c1cc([N+](=O)[O-])cc([N+](=O)[O-])c1	-3	0	6	·	1	-3	16	-9
CCCCc1c(C)nc(N)[nH]c1=O	-9	-3	·	i	-2	1	-7	4
Cc1noc(C)c1C(=O)OCC(=O)NCCC1=CCCCC1	-16	-13	-13	i	1	-1	-3	·
Cc1nc(SCC(=O)N2CCN(c3ccccc3)CC2)n[nH]1	7	-4	-15	i	1	4	6	-31
COCCNC(=S)N(CCc1c(C)[nH]c2ccc(F)cc12)Cc1cccnc1	10	-4	25	i	-8	-2	2	1
C/C(=N\OC(=O)c1cccc(C)c1)c1sc(-c2ccccc2)nc1C	19	7	-56	i	0	10	0	-9
N#CCCN(Cc1ccccc1)C(=O)Nc1ccc(F)cc1	-11	-9	-4	i	2	6	-8	·
CC(C)C(=O)Nc1nnc(SCC(=O)Nc2ccc3c(c2)OCO3)s1	·	0	·	i	2	3	-8	-7
CCOC(=O)c1c(NC(=O)N/N=C/c2ccccc2OCC)sc(C(C)=O)c1C	·	2	12	i	0	1	14	-20
O=C(NN1C(=O)C2CC=C(Cl)CC2C1=O)c1ccncc1 (centres undefined)	17	?	5	i	0	1	9.7*	-23	PABP polyA inh retest=111*
Cc1cc(NC(=O)c2cc(CC(C)C)on2)no1	-11	-2	-28	i	-6	3	-1	-6
COC(Cn1c(-c2cccc(S(=O)(=O)N(C)C)c2)n[nH]c1=S)OC	-2	-10	-2	i	3	0	-8	·
O=C(CO/N=C/c1ccccc1OC(F)F)NCc1ccco1	-11	2	17	i	·	·	-8	-15
O=C(O)CNS(=O)(=O)c1cc(Cl)c(Cl)cc1Cl	-29	-4	·	i	0	1	6	-5
O=C(NC1CCN(S(=O)(=O)c2ccccc2)CC1)c1ccccc1	-36	-2	-28	i	3	0	2	-6
CSCCNC(=O)C1(C)CCN1C(=O)C/C=C/c1ccccc1 (centres undefined)	·	·	11	·	9	7	·	-10
C/C(N)=C(/C#N)C(=O)COC(=O)C1Cc2ccccc2CN1S(C)(=O)=O (centres undefined)	·	26	-37	i	4&0	2&-9	12	-7&-7
COCCn1c(SCc2cc(C(C)=O)ccc2OC)nc2cc(Cl)ccc2c1=O	11	5	·	i	0	6	2	-10
Additional entries
SMILES	CSC inhib	eIF4H FP inh	Env fusion inh	Rce1 inh	MT1-MMP act inh	MT1-MMP act inh RFP	PABP polyA inh	Yeast UUG start	others
CS(=O)(=O)c1ccc2nc(NC(=O)C3=NN(c4ccccc4)C(=O)CC3)sc2c1	5	5	-18	i	-3	8	6	4
Cc1cc(O)c(C(=O)/C=C/c2ccccc2)c(=O)o1	18	9	-31	i	-22	11	-2	-7
CC(=O)N1CCc2cc(S(=O)(=O)N3CCc4ccccc4C3)ccc21	·	-15	·	i	6	-3	4	-13
COc1ccc(NC(=O)Nc2cccc3c2O[C@H](CN(C)C(=O)NC(C)C)[C@@H](C)CN([C@H](C)CO)C3=O)cc1	-2	·	-4[16.7 µM]	·	6	6	·	-9&-10
Cc1oc(-c2ccc(Cl)cc2)nc1CS(=O)CC(=O)NCCN1CCCCCC1 (centres undefined)	11	3	6	i	-4	-1	4	-13
COc1ccc(-n2cnnc2SCC(=O)Nc2cccc(S(=O)(=O)N3CCCCC3)c2)cc1	0	-8	·	i	-1	-9	-16	-7
COc1ccccc1Cc1c(-c2ccc(OC)c(OC)c2)nc2ccc(Cl)cn12	·	·	-18	·	3	5	·	6
CCCS(=O)(=O)N1CCC(C(=O)N2CCN(Cc3ccccc3)CC2)CC1	·	-4	·	i	0	2	2	0
COc1ccc(OC)c(-n2c(-c3ccn[nH]3)n[nH]c2=S)c1	-12	-6	-1	i	4	-3	-5	-6
CCOC(=O)/C(=C\Nc1ccccc1C(F)(F)F)Sc1ncc(C(F)(F)F)cc1Cl	-1	-10	·	i	-5	-6	-6	·
COc1ccc2c(C)cc(SC3CCOC3=O)nc2c1 (centres undefined)	-8	-2	11	i	-5	0	8	·
C[C@@H]1CN([C@H](C)CO)C(=O)CCCn2nncc2CO[C@H]1CN(C)C(=O)c1ccc(N2CCN(C)CC2)cc1	·	·	-12	·	1	6	·	-32&-2
Cc1cccc2c1cnn2C(=O)CCC(=O)NC1CCCCC1	6	-2	9	i	-7	1	-10	17
Clc1ccccc1OCc1nn2c(-c3ccncc3)nnc2s1	9	-3	23	i	-1	0	-4	-5
CC(C)(C)c1ccc(C(=O)Oc2ccc3c(c2)OCC3=O)cc1	8	-9	·	i	0	11	-8	-18
COc1ccc(OC)c(NC(=O)c2ccccc2NC(=O)c2ccco2)c1	5	7	-1	i	-5	-6	-10	6
CCN1CCN(CCCNC(=O)c2ccc3c(c2)NC(=O)c2ccccc2S3)CC1	-3	-12	0	i	-1	2	-6	-5
Cc1cccc(C)c1NC(=O)CCS(=O)(=O)c1cccc2nonc12	·	2	-1	i	0	0	-4	-6
CSCCC(C(=O)Nc1ccc2c(c1)OCO2)N1C(=O)c2ccccc2C1=O (centres undefined)	10	-2	-105	i	0	5	-6	·
CN(C)CC(c1ccccc1)c1ccccc1	-8	-3	0	i	-3	0	-10	-11
COc1ccc(OC2OC3COC(C)(C)OC3C(O)C2NC(C)=O)cc1 (centres undefined)	-6	4	·	i	2	3	-11	-20
Cc1ccc(CS(=O)(=O)c2ncc(Cl)c(C(=O)Nc3ccc(OC(F)F)cc3)n2)cc1	105*	·	3	i	-5	1	·	-17
Cc1ccc(C(=O)N2CCC(C)CC2)cc1NC1=NC2CS(=O)(=O)CC2S1 (centres undefined)	8	-6	10	i	0	3	-16	-22

An excerpt from further up:
SMILES	CSC inhib	eIF4H FP inh	Env fusion inh	Rce1 inh	MT1-MMP act inh	MT1-MMP act inh RFP	PABP polyA inh	Yeast UUG start	others
COC(=O)NCC(c1cccnc1)N1CCN(c2ccccc2OC)CC1 (centres undefined)	11	4	·	i	5	4	5	0
O=C(N/N=C/c1ccc2c(c1)OCO2)c1ccc(NC(=O)c2ccc(F)cc2)cc1	16	-1	7	i	-2	-4	1	-18

Screens from PubChem BioAssay.
